Screening data (PubChem)
RecA splice inh: inhibitors of M. tuberculosis RecA intein splicing; P9WHJ3; cell-free RecA intein splicing, fluorescence; inhibition, %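 (about 9 µM by stock and volumes)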; 290,000 compounds, 0.75% hits; in the data active = inhibition above about 30%; inconclusive = no clear call, values can overlap the other calls;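 note: 0% = vehicle wells and 100% = reference inhibitor control wells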
Target sequence (P9WHJ3 whole entry, looked up, canonical isoform): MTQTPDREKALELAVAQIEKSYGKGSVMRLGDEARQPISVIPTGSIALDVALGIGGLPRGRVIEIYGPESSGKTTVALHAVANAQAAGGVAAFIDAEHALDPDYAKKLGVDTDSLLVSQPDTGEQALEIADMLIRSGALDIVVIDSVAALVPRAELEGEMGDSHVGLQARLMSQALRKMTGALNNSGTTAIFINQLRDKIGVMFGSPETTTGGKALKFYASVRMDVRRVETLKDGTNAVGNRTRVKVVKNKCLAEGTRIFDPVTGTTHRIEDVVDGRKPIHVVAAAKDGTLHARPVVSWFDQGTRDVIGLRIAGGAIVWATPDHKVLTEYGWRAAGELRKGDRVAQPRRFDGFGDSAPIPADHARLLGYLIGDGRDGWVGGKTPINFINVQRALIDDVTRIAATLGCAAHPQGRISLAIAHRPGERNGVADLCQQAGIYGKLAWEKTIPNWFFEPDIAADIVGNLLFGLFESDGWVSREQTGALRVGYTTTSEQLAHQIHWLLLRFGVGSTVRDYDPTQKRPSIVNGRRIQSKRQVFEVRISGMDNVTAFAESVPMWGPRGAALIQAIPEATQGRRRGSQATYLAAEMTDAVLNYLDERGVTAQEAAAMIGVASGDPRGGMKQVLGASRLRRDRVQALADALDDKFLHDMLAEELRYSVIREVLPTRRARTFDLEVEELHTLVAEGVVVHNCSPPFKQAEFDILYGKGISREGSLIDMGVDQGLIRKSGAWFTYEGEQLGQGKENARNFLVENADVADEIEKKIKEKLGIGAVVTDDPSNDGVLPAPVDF
Arbovirus inh: antivirals against arbovirus infection. arbovirus infection cell-based antiviral screen. 200,000 compounds, 0.37% hits. inhibition, % at 10 µM;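 active = inhibition from about 30%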;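 note: bluetongue infection of BSR cells; cell survival read as ATP light after 72 h; 0% = infected wells without compound and 100% = uninfected wells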
Mtb betalactam: beta-lactam sensitization of Mtb H37Rv; M. tuberculosis H37Rv growth with meropenem, percent inhibition; hits of this screen are not shown here; inhibition, % at 25 µM; 330,000 compounds, 0.27% hits; AID 434955;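 active = about 74% or more and at least 40 points above the plate without the antibiotic, then above 30% in a dose series; inconclusive = first-round hits that could not be retested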;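 note: growth measured after seven days incubation then overnight dye step; 0% = bacteria only wells and 100% = bacteria with antibiotic; twin plates without the antibiotic show which effects depend on it; some results filed as inactive read as strong as hits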
Mtb H37Rv: M. tuberculosis H37Rv growth inhibitors, H37Rv strain (AID 1626); 220,000 compounds, 0.95% hits; M. tuberculosis H37Rv growth inhibition; higher % means a stronger effect; inhibition, % at 10 µM, or IC50 in µM where a hit was titrated;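 active = confirmed in a dose series; inconclusive = inhibition above 80% but not taken into the dose series; inactive = below 80% or under 30% at every dose of the series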;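 note: bacteria incubated seven days before Alamar blue readout; 0% = bacteria only wells and 100% = bacteria with antibiotic wells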
YopH PTP inh: blocks Yersinia enterocolitica YopH tyrosine phosphatase; fluorescence Ex485/Em525; AID 898; inhibition, %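 (about 10 µM by stock and volumes)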; 140,000 compounds, 0.16% hits;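 active = inhibition of 50% or more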;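 note: controls were vehicle for no effect and minimum signal wells for full effect; inactives centre near -20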
Arbovirus inh repeat: also measured in Arbovirus inh; calls as there; inhibition, %; measured here: 10K subset replicate screen; many hits read low in the repeat;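 first of two repeat runs on a subset; 0% = infected and 100% = uninfected wells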
* hit, by the source's call; i = inactive; ? = inconclusive; . = not tested or not shown. This is a subset. The share of hits here may be higher or lower than overall.

SMILES	RecA splice inh	Arbovirus inh	Mtb betalactam	Mtb H37Rv	YopH PTP inh	others
COc1ccc(C(=O)Nc2c(Cl)cc(Cl)cc2C(=O)NCc2ccco2)cc1	-2.9	-21	-8	-2%	6
COc1ccccc1OCCNC(=O)c1cc(F)c(F)cc1Cl	-6.1	1	8	4%	-27
O=C(CSc1n[nH]c(-c2ccncc2)n1)Nc1ccccc1	-5.3	.	9	.	.
CC(C1CC2CCC1C2)n1c(-c2cccs2)n[nH]c1=S (centres undefined)	-2.8	.	0	-2%	.
CCOC(=O)c1cc(C)sc1NC(=O)CCC(=O)O	.	0	-10	-13%	-45
O=C(NC1(Cc2ccc(O)cc2)CCCCC1)c1ccccc1	1.6	.	0	.	.
Cc1cc2c(cc(C(=O)OC(C(=O)NCC3CCCO3)C(C)C)n2C)o1 (centres undefined)	.	-5	-5	0%	.
CC(C)COC(=O)Nc1nnc(SCc2ccccc2F)s1	-0.9	21	1	-5%	-23
O=[N+]([O-])c1ccc(Nc2c3ccccc3nc3ccccc23)cc1	-7.3	-34	.	8%	.
CCCCn1c(=O)[nH]c2ccccc21	0.0	7	4	4%	-40	Arbovirus inh repeat=5
COc1cccc2cc(C(=O)Nc3cccc(C)n3)c(=O)oc12	1.0	.	47	.	.
COc1ccc(NC(=O)COc2ccc3c(c2)OCO3)cc1	-0.8	.	43	.	.
S=c1nc(-c2ccccc2)n(CCN2CCOCC2)c2c1CCCC2	-1.8	4	?	0%	-45	Arbovirus inh repeat=0
CC1CCOC2(O1)C(=O)N(CN1CCN(c3cccc(Cl)c3)CC1)c1ccccc12 (centres undefined)	0.9	0	-6	3%	1
Cc1cccc(NC(=O)C2CCN(S(=O)(=O)c3ccc4c(c3)OCCO4)CC2)n1	-5.9	.	-11	.	.
CN(C)C(=O)CCC(=O)N1CCCC(N2CCN(c3cccc(C(F)(F)F)c3)CC2)C1 (centres undefined)	-4.6	.	-6	.	.
CCn1nc(NS(=O)(=O)c2cccc3nonc23)c2cc3ccc(C)cc3nc21	0.2	.	-9	.	.
CN1CCN(C(=O)c2ccccc2NC(=O)c2cccs2)CC1	-2.7	3	17	-3%	-36	Arbovirus inh repeat=1
CSC(=NC#N)N1CCN(c2c(C)cccc2C)CC1	-0.4	-2	-5	3%	.
CC(C)CNS(=O)(=O)c1ccc(CCC(=O)O)cc1	2.5	4	-16	-13%	-40
COc1ccc(CNC(=O)CN2C(=O)CSc3ccc(S(=O)(=O)N4CCOCC4)cc32)cc1	-1.1	.	-1	.	.
Cc1ccc(-n2c(CSc3nc(C)cc(C)n3)nnc2SCC(=O)NCc2ccco2)cc1	1.7	-3	-5	-3%	10
COc1cc(C(=O)O)ccc1O	-0.9	1	-12	-13%	-28
Cc1c(CCC(=O)N[C@@H](CC(C)C)C(=O)O)c(=O)oc2c(C)c3oc4c(c3cc12)CCCC4	-2.6	.	-6	.	.
O=C(Cc1ccc(Cl)cc1)N/N=C/c1c(Cl)cccc1Cl	20	1	-1	4%	-15
CC(=O)CSc1nc2c(c(=O)[nH]c(=O)n2C)n1Cc1ccccc1Cl	0.2	.	-3	.	.
Cc1nn(C)cc1CN(C)S(=O)(=O)c1cccc([N+](=O)[O-])c1	-1.6	6	-6	5%	.
Cc1ccc(CC(=O)N/N=C/c2ccc3c(c2)OCO3)cc1	-2.0	-3	1	1%	.
O=C(c1cccc(C(F)(F)F)c1)C1CCCN(C(=O)c2cc(C3CC3)[nH]n2)C1 (centres undefined)	1.8	.	1	.	.
O=C(c1ncc[nH]1)c1ccco1	-0.7	4	-6	1%	-43
O=S(=O)(c1cccc2cccnc12)N1CCN(Cc2ccccc2)CC1	1.4	0	0	-4%	.
O=S(=O)(Nc1nc(-c2ccccc2)cs1)c1cccc(C(F)(F)F)c1	4.0	.	4	.	.
CCCOP(=O)(c1ccc(N(C)C)cc1)C(Nc1ccccc1)c1ccc(N(C)C)cc1 (centres undefined)	9.3	-8	-4	-4%	-13
Cc1oc2ccccc2c1CNC(=O)N(C)C	-6.5	.	-5	5%	.
COCCNC(=O)c1ccc2snnc2c1	-1.5	-6	-13	4%	1
CC1CCCCC1NC(=O)C1CCCN1S(=O)(=O)c1cccc2nsnc12 (centres undefined)	0.8	1	2	3%	-48

Next section; the last 7 above are carried over.
SMILES	RecA splice inh	Arbovirus inh	Mtb betalactam	Mtb H37Rv	YopH PTP inh	others
O=C(c1ncc[nH]1)c1ccco1	-0.7	4	-6	1%	-43
O=S(=O)(c1cccc2cccnc12)N1CCN(Cc2ccccc2)CC1	1.4	0	0	-4%	.
O=S(=O)(Nc1nc(-c2ccccc2)cs1)c1cccc(C(F)(F)F)c1	4.0	.	4	.	.
CCCOP(=O)(c1ccc(N(C)C)cc1)C(Nc1ccccc1)c1ccc(N(C)C)cc1 (centres undefined)	9.3	-8	-4	-4%	-13
Cc1oc2ccccc2c1CNC(=O)N(C)C	-6.5	.	-5	5%	.
COCCNC(=O)c1ccc2snnc2c1	-1.5	-6	-13	4%	1
CC1CCCCC1NC(=O)C1CCCN1S(=O)(=O)c1cccc2nsnc12 (centres undefined)	0.8	1	2	3%	-48
Cn1c2ccccc2c(=O)c2ccc(C#CC3(O)CCCCC3)cc21	i	.	96	.	.
O=C(O)C(Cc1ccc(O)cc1)N1C(=O)C2CCCCC2C1=O (centres undefined)	-0.2	.	-7	7%	.
O=C(CCCc1cccs1)Nc1nc2c(s1)CCCC2	6.9	-9	13	-6%	0
O=C(CSc1nnc(CNC(=O)c2ccccc2)o1)NCC1CCCO1 (centres undefined)	2.8	.	-8	.	.
CCOc1ccc(CCNC(=O)C2CCCN(S(=O)(=O)c3c(C)n[nH]c3C)C2)cc1OCC (centres undefined)	.	2	-6	3%	-35
COc1ccc2c(c1OC)C(=O)OC2c1c(O)n(C2CCCCC2)c(=O)[nH]c1=O (centres undefined)	3.4	-1	-1	3%	-35
CCN(c1cccc(C)c1)S(=O)(=O)c1cc(CN2C(=O)c3cccnc3C2=O)ccc1OC	2.5	.	2	.	.
COC(=O)c1ccccc1NC(=O)CCCn1nc(C)c2c(C)n(-c3ccccc3)nc2c1=O	-3.7	.	4	.	.
CC(C)(C)c1ccc(C(=O)N/N=C/c2cccc(Cl)c2)cc1	16	1	2	-6%	-5
N/C(=N\c1nc2ccccc2o1)NC(=O)c1ccc(F)cc1	-2.3	-23	95	75%	-19
O=C(c1c(F)c(F)c(F)c(F)c1F)N1CCN(Cc2ccc3c(c2)OCO3)CC1	1.0	.	1	.	.
Cc1nc(SCC(=O)Nc2ccccc2C(F)(F)F)c(C#N)c(C)c1CC(=O)c1ccc(Br)cc1	4.7	-25	41	-9%	8
CCCCC[C@H]1CN(C2CCCCC2)C(=O)[C@@H]1CC(=O)NCc1ccccc1	8.1	.	2	.	.
Cc1ccccc1-c1nc(CS(=O)CC(=O)NC2CCCCC2)c(C)o1 (centres undefined)	-1.8	.	-3	.	.
O=C(O)C/C(=C\c1cccc(NC(=O)c2ccccc2Cl)c1)c1nc2ccccc2s1	0.8	.	0	-2%	.
COc1ccc(N2CCN(Cc3nc4scc(-c5cccs5)c4c(=O)[nH]3)CC2)cc1	0.5	1	0	6%	.
O=C(O)CCSc1nc2ccccc2n1Cc1ccccc1	-4.2	.	-6	.	.
Cc1ccc(-c2ccc(SCC(=O)NC3CCCCC3)nn2)cc1	3.6	.	7	.	.
CCOc1ccc(NC(=O)N2CCN(S(C)(=O)=O)CC2)cc1	-2.7	3	-2	-4%	.
CCOC(=O)C1(C(F)(F)F)N=C(c2ccccc2F)OC(N(C)C)=N1 (centres undefined)	1.7	.	-5	6%	.
CCCc1sc(N)nc1-c1ccc(Cl)cc1	5.0	5	-9	63%	-37
C/C(=N\NC(=O)CSc1nc2ccccc2s1)c1ccco1	1.3	1	72	10%	-29
Cc1cc2nc3s/c(=C/c4ccc(-c5ccccc5C(=O)O)o4)c(=O)n3c2cc1C	0.5	.	0	.	.
Fc1cccc(Cl)c1CNC(c1ccccc1)c1ccccc1	25	-2	0	1%	-33
COc1ccc(C2C(C(=O)Nc3ccccc3)=C(C)Nc3nc(CCCO)nn32)cc1 (centres undefined)	-3.0	-4	7	-2%	4
CCCNc1nc2c(c(=O)[nH]c(=O)n2C)n1CCOc1ccccc1	1.3	.	4	.	.
CCCCCn1nc(C)c(/C=N\NC(=O)c2cc(C)oc2C)c1C	2.5	-11	2	-5%	7
Cc1n[nH]c(C)c1N1C(=O)c2cccc3c(Br)ccc(c23)C1=O	-1.4	5	-3	-8%	-37
CCOc1ccc2[nH]c3nc(SCC(=O)NC4CCCC4)nnc3c2c1	0.1	.	-3	.	.
COC(=O)C1=C(C)NC(=O)/C1=C\c1ccc2c(c1)OCO2	-2.5	-1	6	-6%	-37
CC(=O)N(c1nnc(-c2ccc(C)cc2)s1)C1CCCC1	3.3	.	-7	.	.
O=C(Nc1ccc(Oc2ccc(NC(=O)Nc3ccc([N+](=O)[O-])cc3)cc2)cc1)Nc1ccc([N+](=O)[O-])cc1	0.0	.	8	5%	.
NC(CC(=O)OC1CCCCC1)C(=O)OC1CCCCC1 (centres undefined)	-0.9	12	-6	-6%	-31
COc1ccc2c(c1)C(NS(=O)(=O)OCC(Cl)(Cl)Cl)CCC2 (centres undefined)	12	.	7	.	.
O=C(COC(=O)/C=C/c1cccc(C(F)(F)F)c1)NC(c1ccccc1)c1ccccc1	0.3	6	-4	4%	-9
c1ccc(-c2ccccc2OCCCN2CCOCC2)cc1	-0.4	-2	-4	2%	.
CC1=CCC(/C=N\Nc2nnc3c(n2)[nH]c2ccccc23)CC1 (centres undefined)	-2.4	13	-2	2%	-23
Cc1ccccc1-c1n[nH]c(=S)n1C	-0.4	1	-1	4%	.
COc1ccc2[nH]c(C(=O)NCCCN3CCCC3=O)c(C)c2c1	-5.7	.	3	.	.
CC(C)Cn1c(/C=N/Nc2nc3ccccc3[nH]2)nc2ccccc21	2.1	-22	.	16%	-10
O=C(Nc1cccc(OC(=O)N2CCCCC2)c1)N1CCOCC1	-0.3	-6	-3	1%	.
Fc1ccc2c(c1)nnn2C1CCN(Cc2nnnn2CCc2ccccc2)CC1	3.1	6	4	-8%	-25
O=C(c1ccc(CS(=O)(=O)c2ccc(Br)cc2)o1)N1CCN(c2ccccn2)CC1	.	-4	1	-9%	-52	Arbovirus inh repeat=-3
COc1ccc(-c2csc(NC(=O)c3ccc(N4C(=O)CCC4=O)cc3)n2)cc1OC	0.7	10	-4	-4%	.
CN(Cc1ccccc1)C1=CC(=[N+]2CCCCC2)CC(C)(C)C1	-1.6	.	-11	-7%	.
COc1ccc(CNC(=O)CCN2C(=O)c3ccccc3C2=O)cc1	-1.5	.	-4	.	.
O=S(=O)(Nc1ccc(S(=O)(=O)N2CCCCC2)cc1)c1ccc(Br)s1	7.9	11	3	-4%	-14
O=S(=O)(NCC1CCCO1)c1ccc(S(=O)(=O)N2CCCC2)cc1 (centres undefined)	-2.1	13	2	0%	36
CCOC(=O)N1CCN(C(=O)C2CCCN(S(=O)(=O)c3ccc(F)cc3)C2)CC1 (centres undefined)	-2.8	-2	0	-15%	.
O=C(NC1=NCCS1)c1ccc(Cl)c(S(=O)(=O)N2CCOCC2)c1	-0.8	12	8	3%	.
COc1ccc(Cc2nnc(NN)[nH]c2=O)cc1OC	-4.0	.	-1	.	.
Cc1ccccc1C(=O)OCCN1CCOCC1	1.6	5	0	-1%	-21
C/C(N)=C(/C#N)C(=O)COC(=O)c1ccc(O)cc1	-0.5	7	2	-1%	-19
COc1c(C)cc(C(=O)C2CCCN(C(=O)c3cc(C)n(C)n3)C2)cc1C (centres undefined)	-0.2	.	-2	.	.
Cc1c(NC(=O)c2cc3nc(-c4ccc(Cl)cc4)cc(C(F)(F)F)n3n2)c(=O)n(-c2ccccc2)n1C	-2.6	-17	21	4%	-20
O=S(=O)(c1ccc(Nc2ccc3c(c2)OCO3)nc1)N1CCOCC1	0.6	-6	?	-5%	-49
c1ccc(OCCCn2nnc(-c3ccc(N4CCOCC4)cc3)n2)cc1	-1.1	3	-1	7%	-28
COc1ccc(Nc2ccc(Cl)cc2)c(C(=O)O)c1	-1.7	13	1	5%	-40
O=C(Nc1ccccc1)Nc1cccc(Cl)c1Cl	1.1	9	14	25%	-25
CC1(NC(=S)Nc2ccccc2)CCS(=O)(=O)C1 (centres undefined)	-2.7	.	-7	-5%	.
COC(=O)CN1C(=O)C2(C(C#N)=C(N)Oc3n[nH]c(-c4cccs4)c32)c2ccccc21 (centres undefined)	8.7	1	-4	1%	-5
